NPYLR7 agonist – mosquito NPYLR7 agonism | HEK293T NPYLR7/Galpha15, GCaMP6s calcium fluorescence | hit rate 0.15% among 270,000 | AID 1259423 | activation, % at 10 µM; in the data active = activation above about 40%;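 also: 0% = vehicle and 100% = reference agonist at the receptor; some compounds past the cut are filed as inactive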
NPYLR7 agonist max-min – second read-out of NPYLR7 agonist, no call of its own (marks repeat the call); activation, %; measured here: Max-Min RFU normalised activation; some inactives read as strong as hits;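 span of the calcium signal over five minutes; 0% = vehicle and 100% = native peptide agonist; compound fluorescence can raise it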
* marks the source's active call; other numbers are inactive results; & = joins results of further samples. An excerpt. The share of hits here may be higher or lower than overall.

SMILES | NPYLR7 agonist | NPYLR7 agonist max-min
CCN(CC)C(=O)C(NC(=O)c1ccc(OC)cc1)C1CCN(C(=O)C2CCCC2)CC1 (centres undefined) | -10 | -6
CCSc1nc(CC(=O)NCCN2CCNC2=O)cs1 | 0 | -1
COc1ccc(OC)c(C2(O)CSC(=Nc3cccnc3)N2C2CC2)c1 (centres undefined) | 1 | 9
CCNC(=O)CN1C(=O)CSC1c1ccc(Cl)c(Cl)c1 (centres undefined) | 18 | 15
COc1c2occc2c(OC(C)=O)c2c(=O)cc(C)oc12 | -3 | -5
CN1CCN2C[C@@H](NC(=O)c3c[nH]c4c(F)cccc4c3=O)C[C@H]2C1 | -6 | -10
Cc1ccc(-n2c(Cc3nc(C)cs3)nnc2SCC(=O)O)cc1 | -5 | -9
Cc1cc(C(=O)N2CC(=O)Nc3ccccc32)n(C)n1 | 2 | -1
Brc1ccc2nc(-n3nc4ccccc4n3)nc(-c3ccccc3)c2c1 | 6&-3 | 6&-6
CCOC(=O)c1ccc(NC(=O)N(CC(=O)N(Cc2ccc3c(c2)OCO3)Cc2ccco2)CC2CCCO2)cc1 (centres undefined) | -12 | -18
CCCOC(=O)c1csc2nnsc12 | 5 | 8
NC1CCN(CCCc2ccccc2)CC1 | 0 | -1
CC(=O)Nc1ccc(SCc2ccc(C(F)(F)F)cc2)nn1 | -1 | -2
Cc1ncc(CC(=O)N2CCC(c3[nH]ncc3-c3ccccc3C)CC2)c(=O)[nH]1 | 1 | 0
Cc1cccc(C2SC(=O)NC3=C2C(=O)c2ccccc23)c1 (centres undefined) | 5 | 1
COC(=O)c1c(C)c(C(=O)C(C)N(Cc2ccco2)S(=O)(=O)c2ccc(Cl)cc2)c(C)n1C (centres undefined) | 21 | 27
O=C(Cn1nnc(-c2cccs2)n1)Nc1cc2c(cc1Cl)OCCCO2 | 15 | 13
CCOc1ccc(-c2ccnc(N3CCN(C(=O)c4ccco4)CC3)n2)cc1 | 25 | 20
COc1ccc(-n2c(=O)[nH]c3c(C(N)=O)nc(-c4ccc(C)cc4)nc32)cc1OC | -3 | -8
Cc1ccc(C2(O)CCN(C(=O)c3cccc(Cn4cccn4)c3)CC2)nc1 | 1 | -2
CSCCNCc1cn(-c2ccc(F)cc2F)nc1-c1ccccc1C | -4 | -8
O=C(NCCn1ncc2c(N3CCCC3)ncnc21)c1ccc(=O)oc1 | -2 | -4
COCCCNc1ccc2c(-c3ccccc3)noc2n1 | 16 | 8
CCN(CC)c1ccc(CN(Cc2ccc(F)cc2)C(=O)c2ccccc2Cl)c(OS(=O)(=O)c2ccc(OC)cc2)c1 | 20 | 19

For reference, some entries already given.
SMILES | NPYLR7 agonist | NPYLR7 agonist max-min
Cc1ccc(C2(O)CCN(C(=O)c3cccc(Cn4cccn4)c3)CC2)nc1 | 1 | -2
CSCCNCc1cn(-c2ccc(F)cc2F)nc1-c1ccccc1C | -4 | -8
O=C(NCCn1ncc2c(N3CCCC3)ncnc21)c1ccc(=O)oc1 | -2 | -4
COCCCNc1ccc2c(-c3ccccc3)noc2n1 | 16 | 8
CCN(CC)c1ccc(CN(Cc2ccc(F)cc2)C(=O)c2ccccc2Cl)c(OS(=O)(=O)c2ccc(OC)cc2)c1 | 20 | 19

Remaining list, next part
SMILES | NPYLR7 agonist | NPYLR7 agonist max-min
Cc1ccc(C)c(C(=O)N2CCn3nc(C(=O)NCCO)cc3C2)c1 | 1 | -10
CCCNC(=O)N(CC(=O)N1CCc2sccc2C1COc1cccc(F)c1)CC1CCCO1 (centres undefined) | -3 | 0
CCOc1ccc(NC(=O)Cn2c(-n3nc(C)cc3C)nc3c(c2=O)CCCC3)cc1 | -5 | -4
Cc1ccc(OCCN(C)c2ccccc2)cn1 | -3 | -4
COc1cccc(C2c3[nH]c4ccccc4c3CCN2C(=O)Cc2cscn2)c1OC (centres undefined) | 6&-1 | 4&-4
FC(F)(F)c1ccnn1-c1nc(-c2ccc(Cl)s2)cs1 | -2 | -3
CCOC1=NN(c2ccc([N+](=O)[O-])cc2)C(=O)/C1=C\c1ccc(OC)c(OC)c1 | 2 | 8
Cc1cc(N2CCN(CC#N)CC2)n2nc(C(F)(F)F)c(-c3ccc(Cl)cc3)c2n1 | 4 | -2
CN1CCC(CNc2ccc(S(=O)(=O)C(F)(F)F)cc2)C1 (centres undefined) | 2 | -1
C=c1cc(C)n(CC(=O)Nc2ccc(C)cc2C)c(=O)c1=C1N=C(c2ccccc2)NO1 | 0 | -5
COC(=O)CC(C)(C)NC(=O)Nc1c(C)cc(Br)cc1C | 9 | 6
c1ccc(-c2nnc3c4cnn(-c5ccccc5)c4ncn23)cc1 | 15 | 4

By substructure, the compounds so far containing an NH in an aromatic ring (4)
SMILES | NPYLR7 agonist | NPYLR7 agonist max-min
CN1CCN2C[C@@H](NC(=O)c3c[nH]c4c(F)cccc4c3=O)C[C@H]2C1 | -6 | -10
Cc1ncc(CC(=O)N2CCC(c3[nH]ncc3-c3ccccc3C)CC2)c(=O)[nH]1 | 1 | 0
COc1ccc(-n2c(=O)[nH]c3c(C(N)=O)nc(-c4ccc(C)cc4)nc32)cc1OC | -3 | -8
COc1cccc(C2c3[nH]c4ccccc4c3CCN2C(=O)Cc2cscn2)c1OC (centres undefined) | 6&-1 | 4&-4

More structures follow:
SMILES | NPYLR7 agonist | NPYLR7 agonist max-min
CCN(CC)C(=O)C1=C(C)N(C)C(=S)NC1c1ccccc1F (centres undefined) | -1 | -2
COc1ccc(OCc2nnc3n2N=C2CCCCC2S3)cc1 (centres undefined) | -1 | 0
CCOC(=O)C1=C(O)/C(=C\c2ccncc2)SC1=Nc1ccccc1F | 20 | 17
Cc1ccc(N2C(=O)C(c3c(C)[nH]n(-c4ccccc4)c3=O)=C(N3CCOCC3)C2=O)cc1 | 9 | 10
CC(C)(C)NCc1cccc(Oc2ncccn2)c1 | 5 | 1
COC(=O)c1ccc(CSc2nc3c(cnn3-c3ccccc3OC)c(=O)[nH]2)cc1 | -2 | -4
CCC(CO)N(Cc1cccnc1)C(=O)c1ccc(C(F)(F)F)[nH]c1=O (centres undefined) | 2 | 2
O=C(Nc1ccc2c(c1)OCO2)c1cccnc1OCC(F)(F)F | 5 | 3
Cc1ccc2nc(NCC3CCCO3)n3c(-c4ccc(F)cc4)nnc3c2c1 (centres undefined) | 7 | 7
CC1CCCCN1c1onc(-c2ccccc2)c1CN(CCN(C)C)C(=O)c1ccc(Cl)cc1 (centres undefined) | 10 | 11
O=C1CN(CC(=O)N2N=C3C(=Cc4cccs4)CCCC3C2c2cccs2)CCN1 (centres undefined) | 10 | 11
CC(C)CN(CC(=O)N1CCc2sccc2C1c1ccccc1)C(=O)C(C)(C)CCl (centres undefined) | -3 | 10
CCCN1C(=S)c2ccccc2C1c1ccccc1 (centres undefined) | -4 | -8
NC1C(=O)Nc2ccccc21 (centres undefined) | -3&-5 | -5&-5
CC(C)COC(=O)c1cccc(S(=O)(=O)Nc2ccc(F)cc2)c1 | 2 | 1
Cc1cc(C)c(CNc2ccc(C#N)cc2F)c(=O)[nH]1 | 4 | -7
CCO[C@H]1COC[C@@H]1NCC(=O)Nc1ccc(Cl)c(OC)c1 | 14 | 3
O=S(=O)(NCC1CCN(C2CC2)C1)N1CCOCC1 (centres undefined) | 4 | 2
CC(C)NC(=O)C1(C)CCCN1C(=O)c1cc(C#N)cs1 (centres undefined) | -9 | -8
CCc1csc(NC(=O)C(C)(C)NC(=O)OC(C)(C)C)n1 | 2 | 0
Cc1ccc(-c2c(C)oc(C)c2C(=O)NCCC(C)(C)C)cc1 | -7 | -14
Cc1c(-c2ccccc2F)[nH]c2ccc(CNC(=O)CCc3cn[nH]c3)cc12 | 13 | 1
CCN1CCN(c2c(CN(C(=O)c3c(OC)cccc3OC)C3CC3)c(C)nn2-c2cccc(F)c2)CC1 | 17 | 20
Cc1cc(C(=O)Nc2ccc3nc(N4CCN(C)CC4)sc3c2)on1 | 4 | 0
C=C(C)COc1ccccc1C(=O)N1CCOC(CCOC)C1 (centres undefined) | -2 | -4
CCCN(CC(=O)Nc1cc(-c2ccccc2)nn1-c1ccc(F)cc1)C(=O)c1ccc(Cl)cc1 | -1 | 1
O=C(NCc1ccco1)C1CCN(S(=O)(=O)NCc2ccccc2)CC1 | 1 | 9
CCN(CC(=O)N(Cc1cccn1Cc1ccccc1Cl)C1CCCCC1)S(=O)(=O)c1ccc(Br)cc1 | -3 | 6
CCOC(=O)C1CCN(C(=O)c2cc(-c3ccc(OC)cc3)n(-c3ccccc3F)c2C)CC1 | -10 | -13
Cc1nnc2ccc(OCCNC(=O)Nc3ccccc3F)nn12 | 3 | 5
CCc1[nH]c2c(CNC(=O)CCC(C)N3CCOCC3)cc(F)cc2c1C (centres undefined) | 7 | 3
CCC#CCN1CCOc2c(O)cc(-c3nc(C)cnc3C)cc2C1 | -5 | -10
NS(=O)(=O)c1ccc(CNC(=O)Cc2ccc(C(F)(F)F)cc2)s1 | 3 | 2
CCCCCc1ccc(C(=O)N(CCN2CCOCC2)CC(=O)N(Cc2ccc(F)cc2)Cc2cccs2)cc1 | -3 | 1
Cc1ccc(Cl)cc1NC(=O)Cn1c2ccccc2c(=O)c2ccccc21 | -1 | -7
CCCCc1ccc(C(=O)N(CC(=O)N(Cc2cccn2Cc2ccccc2Cl)CC(C)C)C(C)C)cc1 | 28 | 29
COc1cccc(-c2nnc(SCc3ccc(C(=O)Nc4ccc(OC)c(OC)c4)cc3)n2-c2ccccc2F)c1 | 16 | 13
Cc1ccc(OCC(=O)NC2CCS(=O)(=O)C2)c(Br)c1 (centres undefined) | 12 | 6
CCc1nc(CN2CCOc3c(O)cc(-c4cccc(Cl)c4)cc3C2)no1 | 5 | 2
Cc1ccccc1-c1ccccc1C(=O)N1CC[C@H](CO)[C@@H](O)C1 | 1 | -2
CC(=O)NC1CCN(Cc2nc(-c3cccc(Oc4ccccc4)c3)oc2C)C1 (centres undefined) | 3 | 2
CCCCN(C)C(=O)c1sc(=O)[nH]c1C | 11 | 7
COc1ccc(/C=C2N=C(/C=C/c3cccc(Cl)c3Cl)OC\2=O)cc1OC(C)=O | -3 | -5
Cc1ccc(-c2cc(C(=O)O)n[nH]2)o1 | -2 | -5
O=[N+]([O-])c1nn(Cc2c(Cl)cccc2Cl)cc1Br | 5 | 10
O=C1CC(NCc2ccncc2)C(=O)N1c1ccc(Cl)cc1 (centres undefined) | -7 | -12
O=C1Cc2cc(N3CC(C(=O)O)CC3=O)ccc2N1 (centres undefined) | 10 | 10
Cc1ccc(-n2c(=O)[nH]c3c(C(N)=O)nc(-c4cccc(C)c4)nc32)cc1 | 0 | 5

Reformatted as a markdown table: part of the list above
| Molecule | NPYLR7 agonist | NPYLR7 agonist max-min |
| --- | --- | --- |
| Cc1ccc(-c2cc(C(=O)O)n[nH]2)o1 | -2 | -5 |
| O=[N+]([O-])c1nn(Cc2c(Cl)cccc2Cl)cc1Br | 5 | 10 |
| O=C1CC(NCc2ccncc2)C(=O)N1c1ccc(Cl)cc1 (centres undefined) | -7 | -12 |
| O=C1Cc2cc(N3CC(C(=O)O)CC3=O)ccc2N1 (centres undefined) | 10 | 10 |
| Cc1ccc(-n2c(=O)[nH]c3c(C(N)=O)nc(-c4cccc(C)c4)nc32)cc1 | 0 | 5 |

Next section:
SMILES | NPYLR7 agonist | NPYLR7 agonist max-min
Cc1cc(C)c(C(=O)N(CC#Cc2ccccc2)C2CCCC2)c(=O)[nH]1 | -21 | -24
CCOC(=O)c1coc(N2CCC(O)(c3ccc(C)cn3)CC2)n1 | 1 | -4
Cc1cn2c3c(=O)n(CC(C)C)c(=O)n(C)c3nc2n1CCc1ccccc1 | 4 | 2
CCC(NC1CCN(c2ccccc2F)CC1)c1ccccn1 (centres undefined) | -2 | -2
O=C(Cn1cc(OCc2ccccc2F)c(=O)cc1CO)NCCc1ccccc1 | 2 | 0
CCOC(=O)c1[nH]c(C)c(C(=O)OCC)c1C | -11 | -10
COc1ccc2nc(-n3nc(C)cc3NC(=O)c3ccccc3OC)sc2c1 | -8 | -13
CC(=O)c1ccc(Oc2cc(C)nc(SCc3cccc(C#N)c3)n2)cc1 | 14 | 7
COCC1(C(=O)NC23CC4CC(C2)CC(n2nnc(C)n2)(C4)C3)CCC1 | 12 | 9
CN(C(=O)CSCC(=O)N1CCOCC1)c1ccccc1F | 0 | -5
CCCn1nc(C)c(C(=O)NCc2cc(F)cc3c2OCOC3)c1C | -20 | -23
CCn1nnc2c(=O)n(Cc3ccc(C(=O)OC)cc3)cnc21 | -1 | 25
CCOC(=O)c1cccc(NC(=O)O[C@@H]2CO[C@H]3[C@@H]2OC[C@@H]3n2nnnc2SCc2ccco2)c1 | -9 | -13
Cc1cc(C(=O)Nc2ccc(C(C)C)cc2)no1 | -8 | -13
CCc1cccc2sc(NC(=O)c3ccccc3[N+](=O)[O-])nc12 | -3 | -2
O=C(O)c1ccc(CSc2nc(N3CCN(Cc4ccccc4)CC3)cc(C(F)(F)F)n2)o1 | 13 | 23
Cc1ccc2nc(N3CCCCC3)c(C=C3SC(=S)N(CCc4ccccc4)C3=O)c(=O)n2c1 | 0 | 23
Cc1ccc(NC(=O)CCOC(C)C)c(CN(C)C)c1 | -1 | -1
CC1(C(=O)NCc2ccc(C(F)(F)F)cc2)CCN1Cc1c(F)cccc1F (centres undefined) | 8 | 2
CCc1ccccc1NC(=O)N1CCN(c2cc(Oc3ccc(Cl)cc3F)ncn2)CC1 | -18 | -4
CC(=O)NCCC(=O)N1C(=Nc2ccccc2C)SCC1(C)C | 8 | 7
O=C(O)c1cc2sc(Nc3ccccc3)nc2s1 | -3 | -5
O=C(Cn1nc2c(c1NC(=O)c1ccco1)CSC2)NCC1CCCO1 (centres undefined) | 4 | 8
CC1CCN(Cc2nnnn2CCCC(=O)N(C)CC2CCOCC2)CC1 | 7 | 2
O=C(O)c1ccccc1Nc1cccc(C(F)(F)F)c1 | -21&-2 | -23&-6
